rRNA inh HTS – inhibits bacterial ribosomal RNA function over humanized ribosomes; E. coli WT GFP vs humanized-ribosome RFP mutants, fluorescence, 24 h; hits give low values; DMSO median 0, no signal -100; GFP signal change (wild-type ribosome), % (test concentration not listed); 350,000 tested, 1.6% active; AID 720706;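 active = significant combined selectivity score with lowered wild-type GFP, culture density cut under 30%, mutant RFP and density less affected; inactive = any of these conditions unmet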; note: one replicate is shown; some compounds called inactive have numbers as strong as hits
rRNA inh HTS OD600 – also measured in rRNA inh HTS; calls as there; OD600 change, %; measured here: OD600 growth;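 optical density of the mix in the first replicate; 0 = DMSO median and -100 = no signal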
rRNA inh HTS RFP – further read-out of rRNA inh HTS, marked with its call; RFP signal change, %; measured here: RFP humanized mutant strains;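 first replicate; 0 = DMSO median and -100 = no signal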
* marks the source's active call; other numbers are inactive results. Some of the compounds tested; rates above refer to the full screens.

1) COc1cccc(CN2CC3(CCN(C(=O)Nc4c(C)noc4C)CC3)c3c([nH]c4cc(OC)ccc34)[C@@H]2CO)c1
2) C[C@@H]1CN([C@H](C)CO)C(=O)c2cc(-c3cccc(F)c3)cnc2O[C@H]1CN(C)C(=O)C1CC1
3) CCCN(C)C[C@H]1OCCCC[C@H](C)Oc2ccc(NC(=O)c3ccncc3)cc2C(=O)N([C@H](C)CO)C[C@H]1C
4) C[C@@H]1CN([C@@H](C)CO)S(=O)(=O)c2ccc(C#CC3CC3)cc2O[C@H]1CN(C)C(=O)C1CCCCC1
5) CC(C)NC(=O)N(C)C[C@@H]1Oc2ccccc2C(=O)N(C)C[C@H]1C

entry no.	1	2	3	4	5
rRNA inh HTS	4	1	3	-20	0
rRNA inh HTS OD600	4	-6	4	-46	4
rRNA inh HTS RFP	4.2	5.3	-1.0	12	-0.2

An excerpt of these results, as labelled records.
[1] COc1cccc(CN2CC3(CCN(C(=O)Nc4c(C)noc4C)CC3)c3c([nH]c4cc(OC)ccc34)[C@@H]2CO)c1
  rRNA inh HTS: 4
  rRNA inh HTS OD600: 4
  rRNA inh HTS RFP: 4.2
[4] C[C@@H]1CN([C@@H](C)CO)S(=O)(=O)c2ccc(C#CC3CC3)cc2O[C@H]1CN(C)C(=O)C1CCCCC1
  rRNA inh HTS: -20
  rRNA inh HTS OD600: -46
  rRNA inh HTS RFP: 12

Continuation.
6) CC(C)C#Cc1ccc2c(c1)O[C@H](CN(C)C(=O)C1CCC1)[C@@H](C)CN([C@H](C)CO)S2(=O)=O
7) C[C@H]1CN([C@@H](C)CO)C(=O)Cc2cc(NS(=O)(=O)c3ccc(Cl)cc3)ccc2O[C@@H]1CN(C)Cc1ccc(-c2ccccc2)cc1
8) CNC[C@@H]1Oc2cc(C#CC3CCCCC3)ccc2S(=O)(=O)N([C@H](C)CO)C[C@H]1C
9) CO[C@H]1CN(C)C(=O)c2ccc(NC(=O)c3cnccn3)cc2OC[C@@H](C)NC[C@@H]1C
10) O=C(Nc1ccc(F)cc1)N1C[C@H]2[C@@H](c3ccccc31)[C@H](CO)N2C(=O)c1cccnc1

entry no.	6	7	8	9	10
rRNA inh HTS	-3	2	10	4	1
rRNA inh HTS OD600	-15	1	-32	1	3
rRNA inh HTS RFP	2.3	0.8	5.8	0.8	0.8

11) COC(=O)C[C@@H]1CC[C@@H]2[C@H](COc3ccc(NS(=O)(=O)c4ccc(F)cc4)cc3C(=O)N2C)O1
12) Cc1ccc(S(=O)(=O)N(C)C[C@H]2Oc3ccc(NS(C)(=O)=O)cc3C(=O)N([C@@H](C)CO)C[C@H]2C)cc1
13) C[C@@H]1CN([C@H](C)CO)C(=O)CCCn2cc(nn2)CO[C@@H]1CN(C)C(=O)c1ccc2ccn(C)c2c1
14) CC(C)C#Cc1ccc([C@@H]2[C@H](CO)N3C(=O)CN(C(=O)Cc4cccnc4)C[C@@H]23)cc1
15) CCCC(=O)Nc1ccc2c(c1)C(=O)N(C)C[C@@H](OC)[C@H](C)CN(C(=O)CC)[C@H](C)CO2

entry no.	11	12	13	14	15
rRNA inh HTS	-2	2	3	1	0
rRNA inh HTS OD600	-6	1	2	6	1
rRNA inh HTS RFP	-0.6	-0.3	-1.8	-4.3	-1.1

16) CN1C[C@H]2[C@@H](c3ccccc31)[C@H](CO)N2Cc1ccccc1
17) CC(C)NC(=O)Nc1ccc2c(c1)C(=O)N([C@H](C)CO)C[C@H](C)[C@H](CN(C)C(=O)CCCN(C)C)OCCCC[C@H](C)O2
18) C[C@@H]1CN(C)C(=O)c2cccc(N)c2O[C@@H]1CN(C)S(C)(=O)=O
19) C[C@@H]1CN([C@@H](C)CO)C(=O)c2cc(NC(=O)CCC(F)(F)F)ccc2O[C@@H](C)CCCCO[C@H]1CN(C)C
20) O=C(NC[C@H]1N[C@H](CO)[C@@H]1c1ccc(C2=CCCCC2)cc1)c1ccccc1

entry no.	16	17	18	19	20
rRNA inh HTS	-3	-1	-4	0	-61
rRNA inh HTS OD600	-5	4	1	6	-80
rRNA inh HTS RFP	1.4	-3.1	-2.9	1.1	-17

21) C[C@H]1CN(C)C(=O)Cc2cc(N(C)C)ccc2O[C@H]1CN(C)C
22) CO[C@@H]1CN(C)C(=O)c2ccc(NC(=O)c3ccccc3F)cc2OC[C@H](C)N(C)C[C@H]1C
23) O=C1[C@H](Cc2ccc(C(F)(F)F)cc2)CCn2cc(nn2)COC[C@H]2CCCCN12
24) O=C(Cc1ccccc1)N1CC[C@@H]2[C@H]1c1cc(C#Cc3cccc(F)c3)ccc1N[C@@H]2CO
25) CC(=O)N(C)C[C@H]1Oc2ccc(NC(=O)NC(C)C)cc2C(=O)N(C)C[C@H]1C

entry no.	21	22	23	24	25
rRNA inh HTS	2	1	-3	-11	-1
rRNA inh HTS OD600	4	-8	1	-15	-1
rRNA inh HTS RFP	0.2	-0.9	-3.5	0.8	0.6

26) C/C=C/c1cnc2c(c1)C(=O)N([C@H](C)CO)C[C@@H](C)[C@H](CN(C)C(=O)C1CCC1)O2
27) O=C(O)C[C@@H]1CC[C@@H](NC(=O)Nc2cc(F)ccc2F)[C@@H](CO)O1
28) C[C@H](CO)N1C[C@H](C)[C@@H](CN(C)Cc2ccccc2C(F)(F)F)OCc2cnnn2CCCC1=O
29) CCCC#Cc1ccc2c(c1)O[C@@H](CN(C)C(=O)C1CCCCC1)[C@H](C)CN([C@@H](C)CO)S2(=O)=O
30) C[C@@H]1CCCCO[C@H](CN(C)C)[C@H](C)CN([C@H](C)CO)C(=O)c2cc(NC(=O)CCC(F)(F)F)ccc2O1

entry no.	26	27	28	29	30
rRNA inh HTS	-3	2	-6	-4	3
rRNA inh HTS OD600	2	1	-23	-14	6
rRNA inh HTS RFP	-0.1	3.8	2.5	4.5	-0.1

31) C[C@H](CO)N1C[C@H](C)[C@@H](CN(C)Cc2ccc(C(F)(F)F)cc2)Oc2ccc(N(C)C)cc2C1=O
32) CCC(=O)N1C[C@@H](C)[C@H](OC)CN(C)C(=O)c2ccc(NC(=O)C3CCOCC3)cc2OC[C@@H]1C
33) COCC(=O)N1C[C@H](C)[C@@H](OC)CN(C)C(=O)c2ccc(NC(=O)Nc3cccc(F)c3)cc2OC[C@H]1C
34) O=C(Nc1ccccc1F)N1C[C@H]2[C@@H](c3ccccc31)[C@H](CO)N2C(=O)Cc1cccnc1
35) O=C(Cc1ccccc1)N1CC[C@@H]2[C@H]1c1cc(-c3ccc(F)cc3)ccc1N[C@@H]2CO

entry no.	31	32	33	34	35
rRNA inh HTS	-2	0	-3	7	-53
rRNA inh HTS OD600	10	0	3	8	-71
rRNA inh HTS RFP	-0.6	0.5	2.8	-0.6	-10

36) C[C@@H]1CN([C@H](C)CO)C(=O)Cc2cc(NC(=O)CCCN(C)C)ccc2O[C@@H]1CN(C)S(=O)(=O)c1ccc(F)cc1
37) O=C(CC1CC1)N1[C@@H](CO)[C@H](c2ccccc2)C12CN(Cc1cccnc1)C2
38) O=C(Nc1cccc(Cl)c1)N1C[C@@H]2[C@H](c3ccccc31)[C@H](CO)N2CC1CCCCC1
39) COc1cccc(C#Cc2ccc3c(c2)[C@H]2[C@H](CCN2C(=O)c2ccc(F)cc2)[C@H](CO)N3)c1
40) CN1C(=O)c2cc(NC(=O)c3ccc(F)c(F)c3)ccc2OC[C@H]2O[C@@H](CC(=O)O)CC[C@@H]21

entry no.	36	37	38	39	40
rRNA inh HTS	5	1	-29	0	1
rRNA inh HTS OD600	6	-2	-34	2	-6
rRNA inh HTS RFP	0.0	1.4	-2.6	-1.6	-2.6

41) Cc1ccccc1-c1cnc2c(c1)C(=O)N([C@@H](C)CO)C[C@H](C)[C@@H](CN(C)C(=O)CC1CC1)O2
42) C[C@H]1CC=CC[C@H](c2cccc(Cl)c2)NC(=O)[C@H](C)N(C)C(=O)c2ccccc2O1 (mixture of isomers)
43) CCCNC(=O)Nc1ccc2c(c1)C(=O)N(C)C[C@H](OC)[C@H](C)CN(C(=O)CC)[C@H](C)CO2
44) CO[C@@H]1CN(C)C(=O)c2cc(NC(=O)c3cccc(Oc4ccccc4)c3)ccc2OC[C@@H](C)NC[C@@H]1C
45) C[C@H](CO)N1C[C@H](C)[C@@H](CN(C)S(=O)(=O)c2cn(C)cn2)Oc2c(NS(=O)(=O)c3ccc(Cl)cc3)cccc2C1=O

entry no.	41	42	43	44	45
rRNA inh HTS	-5	-32	1	-5	-4
rRNA inh HTS OD600	6	-67	2	7	4
rRNA inh HTS RFP	-1.4	6.3	-0.8	16	-4.7

46) CCCC(=O)N1CC2(C1)CN(C(=O)C1CCCC1)[C@H](CO)c1[nH]c3cc(OC)ccc3c12
47) CCCN(C)C[C@H]1Oc2cc(C3=CCCC3)ccc2S(=O)(=O)N([C@H](C)CO)C[C@@H]1C
48) COc1cccc(CN2CCCCN3[C@@H](CO)[C@@H](c4ccc(-c5ccccc5OC)cc4)[C@@H]3C2)c1
49) C/C=C/c1ccc([C@@H]2[C@H](CO)N(CCC(F)(F)F)C23CN(C(C)=O)C3)cc1
50) COc1ccc2c3c([nH]c2c1)[C@@H](CO)N(Cc1cccc(F)c1)CC31CCN(CC2CC2)CC1

entry no.	46	47	48	49	50
rRNA inh HTS	0	2	-56	0	-1
rRNA inh HTS OD600	5	-6	-82	3	-5
rRNA inh HTS RFP	-5.9	1.0	-14	-1.7	1.7

Reformatted with values ahead of the structure: part of the list above.
| item | rRNA inh HTS | rRNA inh HTS OD600 | rRNA inh HTS RFP | SMILES |
| --- | --- | --- | --- | --- |
| 35 | -53 | -71 | -10 | O=C(Cc1ccccc1)N1CC[C@@H]2[C@H]1c1cc(-c3ccc(F)cc3)ccc1N[C@@H]2CO |
| 36 | 5 | 6 | 0.0 | C[C@@H]1CN([C@H](C)CO)C(=O)Cc2cc(NC(=O)CCCN(C)C)ccc2O[C@@H]1CN(C)S(=O)(=O)c1ccc(F)cc1 |
| 37 | 1 | -2 | 1.4 | O=C(CC1CC1)N1[C@@H](CO)[C@H](c2ccccc2)C12CN(Cc1cccnc1)C2 |
| 38 | -29 | -34 | -2.6 | O=C(Nc1cccc(Cl)c1)N1C[C@@H]2[C@H](c3ccccc31)[C@H](CO)N2CC1CCCCC1 |
| 39 | 0 | 2 | -1.6 | COc1cccc(C#Cc2ccc3c(c2)[C@H]2[C@H](CCN2C(=O)c2ccc(F)cc2)[C@H](CO)N3)c1 |
| 40 | 1 | -6 | -2.6 | CN1C(=O)c2cc(NC(=O)c3ccc(F)c(F)c3)ccc2OC[C@H]2O[C@@H](CC(=O)O)CC[C@@H]21 |

(listing goes on)
51) COc1ccc(S(=O)(=O)N2CCCCN3[C@H](C2)[C@@H](c2ccc(C#CCC(C)C)cc2)[C@@H]3CO)cc1
52) CC(C)NC(=O)Nc1cccc2c1O[C@@H](CN(C)C(=O)NC(C)C)[C@H](C)CN(C)C2=O
53) CNC[C@H]1Oc2ncc(Br)cc2C(=O)N([C@@H](C)CO)C[C@H]1C
54) C[C@H]1CN([C@@H](C)CO)S(=O)(=O)c2ccc(C#CC3CCCC3)cc2O[C@@H]1CN(C)Cc1cncnc1
55) C[C@H](CO)N1C[C@H](C)[C@H](CN(C)Cc2cccc(C(F)(F)F)c2)Oc2ncccc2C1=O

entry no.	51	52	53	54	55
rRNA inh HTS	7	-4	3	-29	5
rRNA inh HTS OD600	10	7	4	-48	1
rRNA inh HTS RFP	3.1	1.7	1.1	39	-4.2

56) CO[C@@H]1CN(C)C(=O)c2cc(NC(=O)NC3CCCC3)ccc2OC[C@H](C)N(CC2CC2)C[C@H]1C
57) CO[C@@H]1CN(C)C(=O)c2ccc(NC(C)=O)cc2OC[C@H](C)N(C(=O)c2ccccc2F)C[C@H]1C
58) C[C@H]1CN([C@@H](C)CO)C(=O)Cc2cc(NS(=O)(=O)c3ccc(Cl)cc3)ccc2O[C@H]1CN(C)C(=O)Nc1ccc2c(c1)OCO2
59) C[C@@H]1CCCCO[C@@H](CN(C)C)[C@H](C)CN([C@H](C)CO)C(=O)c2cc(NC(=O)C3CCCCC3)ccc2O1
60) CC(C)NC(=O)Nc1cccc2c1O[C@H](CN(C)S(=O)(=O)c1cccs1)[C@@H](C)CN([C@@H](C)CO)C2=O

entry no.	56	57	58	59	60
rRNA inh HTS	3	2	6	0	2
rRNA inh HTS OD600	7	3	5	5	-1
rRNA inh HTS RFP	-0.7	0.9	2.0	0.5	-1.5

61) CCC(=O)N1[C@H](CO)[C@H](c2ccc(-c3ccc(F)cc3)cc2)[C@@H]1CNC(C)=O
62) Cc1ccc(S(=O)(=O)Nc2ccc3c(c2)C(=O)N([C@H](C)CO)C[C@@H](C)[C@@H](CN(C)Cc2ccc(C(F)(F)F)cc2)O3)cc1
63) Cc1ccc(-c2ccc3c(c2)O[C@H](CN(C)C(=O)C2CCCCC2)[C@@H](C)CN([C@@H](C)CO)S3(=O)=O)cc1
64) C[C@H]1CC=CC[C@H](c2ccc3c(c2)OCO3)NC(=O)[C@H](C)N(C)C(=O)c2ccccc2O1 (mixture of isomers)
65) C[C@H]1CN([C@@H](C)CO)C(=O)c2cc(C#Cc3ccncc3)cnc2O[C@H]1CN(C)Cc1ccncc1

entry no.	61	62	63	64	65
rRNA inh HTS	2	-4	-2	-2	6
rRNA inh HTS OD600	-1	-19	-10	-6	11
rRNA inh HTS RFP	-1.3	6.9	1.0	3.5	-1.8

66) C[C@@H]1CN([C@H](C)CO)C(=O)c2ccccc2-c2ccccc2CO[C@H]1CN(C)C(=O)c1ccc(F)cc1
67) CNC[C@@H]1OCCCC[C@@H](C)Oc2ccc(NC(=O)Nc3ccc(F)cc3)cc2C(=O)N([C@H](C)CO)C[C@H]1C
68) C/C=C/c1cccc(-c2nc(C(=O)NC3CCC3)cc3c2[C@H](CCO)N([S@@](=O)C(C)(C)C)C3)c1
69) C[C@H](CO)N1C[C@H](C)[C@@H](CN(C)Cc2cccc(F)c2)Oc2cc(-c3ccc(F)cc3)ccc2S1(=O)=O
70) C[C@H](CO)N1C[C@H](C)[C@H](CN(C)Cc2ccc(F)cc2)Oc2ncc(C#Cc3ccccc3)cc2C1=O

entry no.	66	67	68	69	70
rRNA inh HTS	0	6	-4	2	-21
rRNA inh HTS OD600	6	-4	-16	-6	-19
rRNA inh HTS RFP	-6.5	-2.1	13	-0.5	5.5
